Bioassay records from PubChem.
GIV-Gai inh = inhibitors of GIV peptide binding to Galpha-i3, primary screen, biochemical, fluorescence polarization, FITC-GIV GBA peptide, rat Galphai3; 90 min; stronger effect = lower value; scaled: aluminum fluoride 0%, vehicle 100%; percent of control (FP), % (concentration not given with the values); 0.42% of 210,000 active;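 active = replicate mean at 85% of control or lower, very high polarization wells dropped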;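 note: wells of about 15 µL received 100 nL stock; the first replicate is given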
Target sequence (P08753 whole entry, looked up): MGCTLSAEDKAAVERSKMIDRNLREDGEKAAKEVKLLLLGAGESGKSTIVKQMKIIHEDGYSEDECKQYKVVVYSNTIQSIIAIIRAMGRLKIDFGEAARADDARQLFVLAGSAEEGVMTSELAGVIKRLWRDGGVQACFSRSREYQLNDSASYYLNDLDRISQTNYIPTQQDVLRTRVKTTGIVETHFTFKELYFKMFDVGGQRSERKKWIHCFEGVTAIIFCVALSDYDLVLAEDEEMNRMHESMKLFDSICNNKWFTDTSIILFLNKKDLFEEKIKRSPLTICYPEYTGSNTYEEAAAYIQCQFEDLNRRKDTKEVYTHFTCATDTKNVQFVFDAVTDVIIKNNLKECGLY
HCMV UL50-53 inh = inhibitors of HCMV UL50-UL53 interaction, biochemical, HTRF; HCMV UL50-UL53 nuclear egress complex (human cytomegalovirus); inhibition, % (test concentration not listed); normalized percent inhibition; 0.15% of 190,000 active;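 active = both replicates at 50% or more, plus weaker picks with an unusually low signal ratio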;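 note: stock transfer was 100 nL into about 20 µL; 0% = negative control wells and 100% = wells with untagged competitor protein; inactives centre near -12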
Sa growth 42C = S. aureus growth inhibition at 42 and 30 °C, primary screen, LtaS inhibitor project, RN4220, two temperatures. OD600, 20 h, 42 °C; stronger effect = lower value. relative growth, % (no concentration beside the values). 0.53% of 170,000 active;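 active = growth at 42 °C up to 50% and 20 or more points under that at 30 °C, or under 10% at both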;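 note: 300 nL library stock went into each well; scaled to the means of positive and negative controls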
Sa growth 42C second temp = second read-out of Sa growth 42C, no call of its own (marks repeat the call); relative growth, %; measured here: growth at 30 °C;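 optical density after 20 h as mean of two plates; 100% = untreated growth and lower means inhibition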
* marks the source's active call; other numbers are inactive results; . = not tested or not shown; & = joins results of further samples. Outcome played no part in choosing rows, and some 0.79% of all compounds hit somewhere here.

SMILES	GIV-Gai inh	HCMV UL50-53 inh	Sa growth 42C	Sa growth 42C second temp
O=C(CS(=O)(=O)c1cccc2nsnc12)Nc1ccc(F)cc1	105	.	107	94
COC(=O)c1ccccc1NC(=O)N1CCC(CN2CCc3ccccc3C2)CC1	108	.	113	91
Nc1ccc(Oc2ccc3ccccc3c2Cl)c(Cl)c1	113	.	110	68
O=C(COC(=O)c1cc(-c2cccs2)nc2ccccc12)c1ccccc1	108	-16	110	88
COc1ccccc1C1C(C(N)=O)=C(C)Nc2nc(SCc3ccccc3F)nn21 (stereo unspecified)	103	-8	112	73
O=C1c2ccccc2C(=O)N1CN1CCSCC1	109	-50	95	80
O=C(CC1(O)C(=O)N(CCc2ccccc2)c2ccc(Br)cc21)c1ccccc1O (stereo unspecified)	97	-2	92	30
CC1CC(C)CN(C(=O)CCCc2nnc3n(C)c(=O)c4sccc4n23)C1 (stereo unspecified)	101	-14	93	81
Cc1cccn2c(=O)c3cc(C(=O)NCCCN4CCCC4=O)n(C)c3nc12	.	-24	88	90
CC1CN(C(=O)COC(=O)c2ccc3ccccc3c2)CC(C)O1 (stereo unspecified)	.	-69	102	87
CN1CCN(C(=O)CCc2nc3ccccc3n2-c2ccccc2)CC1	.	-11	96	98
O=C(NCc1ccc(-n2cccc2)cc1)c1cccs1	99	-41	105	100
Cc1nc2c(c(NCCCN(C)C)n1)CCC2	100	-10	.	.
O=c1c(-c2cccs2)nc2ccccc2n1C1CCCCC1	.	-20	93	98
CC(C)N(Cc1ccccc1)C(=O)Cn1c(=O)oc2ccccc21	.	-34	83	93
O=C(CCCSc1nc2ccc(Cl)cc2s1)c1ccc(F)cc1	.	-16	108	89
CCOC(=O)c1c(NC(=O)c2cc(-c3ccc(Br)cc3)on2)sc(C)c1C	106	19	90	97
CCc1ccccc1Nc1sc(C(=O)c2ccccc2)c(N)c1S(=O)(=O)c1ccccc1	107	6	108	101
COc1cc2c(C(=O)N3CCCCCC3)cn(C)c(=O)c2cc1OC	100	.	102	92
CCCCN1C(=O)c2cccc3c(Cl)ccc1c23	103	-23	87	61
CN(C)/C=N/NC(=O)c1cc(COc2cc(Cl)cc(Cl)c2)on1	106	-20	109	99
O=C(COc1ccccc1)Nc1nccs1	.	-6	100	84
COc1ccc(CNC(=O)C2CCCN2C(=O)NCc2ccccc2)cc1 (stereo unspecified)	99	-19	81	84
Cc1cc2c(cc1S(=O)(=O)N1CCCC1)n(C)c(=O)c(=O)n2C	104	.	103	87
N#CC1=C(SCC(=O)Nc2ccc(Br)cc2)NC(=O)CC1c1cccc([N+](=O)[O-])c1 (stereo unspecified)	108	-11	.	.
COc1cccc(OC)c1C(=O)Nc1nnc(CC(C)(C)C)s1	.	-1	100	83
COc1ccc(Cc2nnc(SCC(=O)Nc3ccc(S(=O)(=O)N4CCCCCC4)cc3)o2)cc1	109	-30	113	103
O=C(NCc1ccc(-c2csnn2)cc1)C1CC1	96	-2	94	85
CCn1cnc2cc(NCc3cccc(Br)c3)ccc21	102&100	-32&-25	80	34
CCN(CC)CCCNC(=O)c1ccc(Cn2c(SCc3ccccc3)nc3cccnc32)cc1	104	.	99	85
O=C1N/C(=N/N=C\c2[nH]ncc2Br)SC1c1ccccc1 (stereo unspecified)	107	-18	94	82
Cc1ccc(S(=O)(=O)n2nccc2-c2c(C)nc3ccccn23)cc1	103	-4	91	64
Cc1ccccc1N1C(=O)NC(=O)/C(=C\c2cn(CC(=O)N3CCOCC3)c3ccccc23)C1=O	99	.	92	75
CCOc1cc(C=C2C(=O)NC(=S)NC2=O)ccc1OCCOc1ccc(C)cc1	96	-19	.	.
O=S1(=O)CC=C(Sc2ccccc2)C1	103	-24	89	86
C=CCN(CC=C)C(=O)c1ccc(N2C(=O)c3ccccc3C2=O)cc1	99	-53	85	81
Cc1ccc(-c2cc(C(F)(F)F)c(C#N)c(SCC(=O)Nc3ccccc3)n2)cc1	108	-37	102	84
O=S(=O)(c1cccc(-c2cn3ccccc3n2)c1)N1CCCCC1	95	.	75	69
Cc1nc(-c2ccc3c(c2)OCCO3)cs1	.	15	80	92
O=C(CC1Oc2ccccc2NC1=O)Nc1cc(Cl)cc(Cl)c1 (stereo unspecified)	100	.	90	73
CC1CCN(S(=O)(=O)c2ccc(NC(=O)Nc3ccccc3)cc2)CC1	103	-12	31*	54*
O=C(CSc1nccn1Cc1ccc(Cl)cc1)NC1CCCC1	99	.	112	92
COC(=O)C1C(=O)C2=C(CC1C)Nc1ccccc1NC2c1ccc(C)cc1 (stereo unspecified)	100	-10	100	61
O=C(NCc1ccccc1Cl)C1CCN(c2nnc(-n3cccc3)s2)CC1	105	2	.	.
O=C(Cc1csc2nc(-c3ccccc3)cn12)NCCc1ccccc1	102	-8	.	.
O=C(OCC1OC(n2ccc(=O)[nH]c2=O)C(O)C1OC(=O)c1ccccc1)c1ccccc1 (stereo unspecified)	.	-7	67	87
c1ccc(-c2nc(N3CCCC3)nc(-n3ccnc3)n2)cc1	.	4	78	58
CCOC(=O)c1sc(NC(=O)c2snnc2C)nc1C	102	-5	.	.

As entered above:
Cc1nc(-c2ccc3c(c2)OCCO3)cs1 @ Sa growth 42C second temp: 92
O=C(NCc1ccccc1Cl)C1CCN(c2nnc(-n3cccc3)s2)CC1 @ GIV-Gai inh: 105

The results go on.
SMILES	GIV-Gai inh	HCMV UL50-53 inh	Sa growth 42C	Sa growth 42C second temp
Clc1ccc(CCN2COc3cc4c(cc3C2)OCO4)c(Cl)c1	112	-32	95	88
CN(CCOc1ccc(Cl)cc1)Cn1nnc2ccccc2c1=O	.	-37	81	93
CCc1cccc(NS(=O)(=O)c2ccc3c(c2)N(C)CCO3)c1	104	-22	77	57
COCCN1C(=O)c2ccccc2C1=O	109	0	92	99
O=C(CN1C(=O)C2CCCCN2c2ccc(C(=O)N3CCCC3)cc21)NCc1ccc(F)cc1 (stereo unspecified)	99	.	93	89
O=C(Cn1nnc(-c2ccc(CN3CCOCC3)cc2)n1)Nc1ccccc1F	106	-10	99	79
C/C(=N\OC(=O)c1ccco1)c1ccccc1O	104	-17	96	95
c1csc(Cc2cccs2)c1	100	6	102	86
Cc1ccc(NC(=O)CN2C(=O)CCn3nc(-c4cccn4C)cc32)c(C)c1	101	-20	.	.
CC(C)(C)C(CN1CCCC1)OC(=O)c1ccccc1 (stereo unspecified)	.	-8	95	88
CCc1ccc(S(=O)(=O)Nc2cccc(-c3ccc(OC)nn3)c2)s1	103	.	97	81
NS(=O)(=O)c1ccc(CCNC(=O)c2cc3c(Cl)ccc4c3n2CCO4)cc1	112	8	102	109
CCOCCCN1C(=O)c2cc3sccc3n2CC1(C)C(=O)NC1CCCC1 (stereo unspecified)	97	-4	.	.
Cc1ccccc1NC(=O)c1c(NC(=O)c2ccccc2)sc2c1CCC2	103	12	100	96
NC(=O)C1CCN(CC(O)COc2ccc(-c3csnn3)cc2)CC1 (stereo unspecified)	97	12	93	90
Cc1ccc(-n2nnnc2SCCN2C(=O)c3ccccc3C2=O)c(C)c1	.	-30	88	88
COC(=O)c1ccc(Nc2cc(C)nc3ccccc23)cc1	99	.	86	78
CC(C)N1C(=O)CSC1c1ccc(Br)cc1 (stereo unspecified)	.	-22	122	96
CC1CN(C(=O)CSCc2ccccc2)CC(C)O1 (stereo unspecified)	106	-12	96	77
CCOC(=O)c1ccoc1CN1CCN(c2ccc(F)cc2)CC1	.	-21	86	85
CCOC(=O)c1ccccc1NC(=O)CSc1nnc(Cc2cccn2C)n1-c1ccc(F)cc1	98	.	68	78
CCCSc1nnc2c(n1)OC(c1ccco1)Nc1ccccc1-2 (stereo unspecified)	78*	-36	.	.
O=C(O)C1C2C=CC(C2)C1C(=O)NCc1ccc(-c2cccs2)s1 (stereo unspecified)	103	-20	147	104
O=C(Nc1ccc2nc(-c3cccs3)[nH]c2c1)c1cccs1	102	-9	104	85
CCOC(=O)Cn1sc2nc(C)cc(C)c2c1=O	103	-89	25	0
CCOc1ccc(Nc2ncccc2C#N)cc1	.	-5	91	101
c1cc(-c2nn3c(C4CCCCC4)nnc3s2)ccn1	108	-26	.	.
COC(=O)c1cc(S(=O)(=O)N2CCN(c3cccc(C)c3)C(C)C2)cn1C (stereo unspecified)	107	.	102	92
Cc1ccc(-n2nc(CO)c(C(=O)NCCC(C)C)n2)cc1C	98	13	109	98
Cc1ccc2cnn(CCCC(=O)NCc3ccc(F)cc3)c2c1	117	3	.	.
C=CCN(C(=O)CSc1nnc(-c2cc3occc3n2C)n1-c1ccccc1C)c1ccccc1	98	.	101	84
CSc1ccc(CCNC(=O)c2ccc(CS(=O)(=O)c3ccc(Br)cc3)o2)cc1	101	.	103	92
c1ccc(-c2ccccc2OCc2nnc3n2CCC3)cc1	.	-32	109	71
CCCC(CC(=O)N1CCN(C/C=C/c2ccccc2)CC1)n1ccnc1 (stereo unspecified)	.	-2	88	93
CCCn1c(=O)c2sccc2n2c(CCCC(=O)N3CCN(c4ccccc4OC)CC3)nnc12	117	.	104	93
Cc1c(NC(=O)Nc2ccc(C#N)cc2)c(=O)n(-c2ccccc2)n1C	101	67	89	101
O=C(CSc1nnc(-c2ccc3c(c2)OCO3)o1)c1ccccc1	.	-9	89	84
CCc1ccc(S(=O)(=O)c2nnn3c2nc(Nc2cc(OC)ccc2OC)c2sccc23)cc1	103	.	108	88
O=C(CC1Sc2ccccc2NC1=O)OCN1C(=O)c2ccccc2C1=O (stereo unspecified)	.	-30	76	90
COc1ccc(CCNC(=O)CSC2=NCCS2)cc1OC	.	-3	99	87
Cc1cccc(OCc2ccc(-c3nc(C#N)c(N4CCN(c5ccccc5)CC4)o3)o2)c1	110	18	102	95
CC(C)(C)C1CCc2c(sc3nc(CCC(=O)N4CCCCC4)[nH]c(=O)c23)C1 (stereo unspecified)	96	4	.	.
CC(C)OCCCNC(=O)c1cc(-c2ccccn2)nc2ccccc12	109	-47	.	.
COc1cc(C=C2C(=O)N(C)C(=O)N(C)C2=O)ccc1OS(=O)(=O)c1ccccc1[N+](=O)[O-]	95	43*	.	.
CCOC(=O)NN1C(=O)c2ccccc2NC1c1ccccc1 (stereo unspecified)	103	10	100	94
COc1ccc(-c2c3c(nc4sc(C(=O)Nc5cccc(OC)c5)c(N)c24)CC(C)(C)CC3=O)cc1	104	-26	95	84
O=C(Nc1ccc(N2C(=O)c3cccnc3C2=O)cc1)c1ccco1	102	.	86	91
CN(C)c1nc2nonc2nc1Nc1ccc(F)cc1	102&102	-73&-46	56	35
COc1cc(C(=O)Oc2ccc(-c3nnco3)cc2)ccc1OC(F)F	.	-11	102	90
COC(=O)Cc1c(C(=O)OC)sc(N)c1C(=O)OC	.	-7	92	90
Cc1ccc(NC(=O)CN(C)C(=S)NC2CC2)cc1	.	-39	76	82
Cc1csc2nc(CCNS(=O)(=O)c3ccc(F)cc3)cn12	106&103	.	103	86
COc1ccc(Nc2cc(C)c3cc(NC(=O)c4ccco4)ccc3n2)cc1	105	-20	89	45
COC(=O)c1cnc(NC(=O)c2ccc3c(c2)S(=O)(=O)N=C2CCCCCN23)s1	.	-9	107	89
CCOc1cccc(NC(=O)C2CC(=O)N(C)C(=Nc3ccc(F)cc3)S2)c1 (stereo unspecified)	98	.	106	93
N#Cc1ccc(CSc2nc3c(c(=O)[nH]2)CCC3)cc1	106	-5	121	89
Cc1ccc(NC(=O)C(C)Nc2ccccc2C)cc1 (stereo unspecified)	.	15	105	104
CCOC(=O)c1c(NC(=O)CCN2C(=O)c3ccccc3C2=O)sc(C(C)=O)c1C	105	-6	.	.
COc1ccc(C2=NN(C(=O)COc3ncnc4ccccc34)C(c3ccco3)C2)cc1 (stereo unspecified)	.	-2	100	99
CC(=O)NCc1ccc(C(=O)CSc2nc3ccccc3n2-c2ccccc2)s1	.	-32	67	77

Nothing new here: an excerpt of the list.
SMILES	GIV-Gai inh	HCMV UL50-53 inh	Sa growth 42C	Sa growth 42C second temp
COc1ccc(-c2c3c(nc4sc(C(=O)Nc5cccc(OC)c5)c(N)c24)CC(C)(C)CC3=O)cc1	104	-26	95	84
O=C(Nc1ccc(N2C(=O)c3cccnc3C2=O)cc1)c1ccco1	102	.	86	91
CN(C)c1nc2nonc2nc1Nc1ccc(F)cc1	102&102	-73&-46	56	35
COc1cc(C(=O)Oc2ccc(-c3nnco3)cc2)ccc1OC(F)F	.	-11	102	90
COC(=O)Cc1c(C(=O)OC)sc(N)c1C(=O)OC	.	-7	92	90
Cc1ccc(NC(=O)CN(C)C(=S)NC2CC2)cc1	.	-39	76	82
Cc1csc2nc(CCNS(=O)(=O)c3ccc(F)cc3)cn12	106&103	.	103	86
COc1ccc(Nc2cc(C)c3cc(NC(=O)c4ccco4)ccc3n2)cc1	105	-20	89	45
COC(=O)c1cnc(NC(=O)c2ccc3c(c2)S(=O)(=O)N=C2CCCCCN23)s1	.	-9	107	89
CCOc1cccc(NC(=O)C2CC(=O)N(C)C(=Nc3ccc(F)cc3)S2)c1 (stereo unspecified)	98	.	106	93
N#Cc1ccc(CSc2nc3c(c(=O)[nH]2)CCC3)cc1	106	-5	121	89
Cc1ccc(NC(=O)C(C)Nc2ccccc2C)cc1 (stereo unspecified)	.	15	105	104
CCOC(=O)c1c(NC(=O)CCN2C(=O)c3ccccc3C2=O)sc(C(C)=O)c1C	105	-6	.	.
COc1ccc(C2=NN(C(=O)COc3ncnc4ccccc34)C(c3ccco3)C2)cc1 (stereo unspecified)	.	-2	100	99
